High-throughput results: PubChem BioAssay, National Center for Advancing Translational Sciences (NCATS)
MARV entry inh: inhibitors of Marburg virus binding or cell entry; Marburg virus pseudotyped entry inhibition, cell reporter; control for the full effect not named in the record; about a third of the inactives were read at about 46 µM; Potency, µM (doses to about 37.8 µM), for the others: top-dose activity change, negative = inhibition, most hits filed as inhibitors; hit rate 1.8% among 300,000; AID 540276; active = well fitted inhibition curve with a large enough effect; inconclusive = small, poorly fitted or top-dose-only effect, or effect the other way; inactive = flat fitted curve, though single readings scatter; tested in HEK293 cells; about a fifth of its hits are not listed in these tables; further: on the % scale 0 is the no-effect control and ±100 the full control effect; luciferase read-out
NS1 function inh: inhibitors of influenza NS1 protein function | S. cerevisiae slowed by influenza A NS1, growth recovery by OD600 | Potency, µM (series often up to 46.1 µM), without a hit: at the highest dose activity, positive = more growth | hit rate 0.4% among 270,000 | AID 2326; active means well fitted rising curve with a large enough effect; inconclusive means small, poorly fitted or top-dose-only effect; inactive means no such curve, though single readings can be large or run the other way; further: nearly all actives have a fitted effect of over 50% in size
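OD600 was taken as the measure of yeast growth restored by compound in an NS1-expressing S. cerevisiae strain. Cells had been washed out of glucose medium and diluted 1:100 into galactose -URA medium, pH 6.0.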
Cruzain noTriton: inhibitors of Trypanosoma cruzi cruzain without detergent; purified cruzain, Z-FR-AMC fluorescence, no detergent; hit rate 2.3% among 200,000; AID 1476; Potency, µM, for the others: max response, negative = inhibition, most hits filed as inhibitors; P25779;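 further: plate controls were enzyme without inhibitor for no effect and buffer without enzyme for full effect; nearly all actives have a fitted effect of over 40% in size; top concentration of the series not given in the record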
Target sequence (P25779 123-467 limits assumed): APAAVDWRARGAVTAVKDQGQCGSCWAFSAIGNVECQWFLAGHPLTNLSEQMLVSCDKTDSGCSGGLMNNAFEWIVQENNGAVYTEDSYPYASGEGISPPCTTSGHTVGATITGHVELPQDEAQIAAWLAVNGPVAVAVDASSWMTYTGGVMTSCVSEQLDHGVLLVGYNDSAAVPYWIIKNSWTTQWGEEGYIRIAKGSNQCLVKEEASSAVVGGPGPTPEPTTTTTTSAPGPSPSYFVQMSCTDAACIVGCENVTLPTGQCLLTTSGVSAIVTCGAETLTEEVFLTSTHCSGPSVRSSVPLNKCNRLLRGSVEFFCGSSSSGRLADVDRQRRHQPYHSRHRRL
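Detergent-free condition (0.00005% Triton X-100) in acetate buffer pH 5.5 with DTT. 1.5 nM enzyme and compound were pre-mixed 15 min, then 2 uM Z-FR-AMC substrate added; reaction progress from fluorescence change between first and third reads (60 s).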
RE007 growth inh: less growth of the S. pombe RE007 Vpr strain | S. pombe RE007 Vpr strain, BacTiter-Glo ATP luminescence, 24 h; control for the full effect not named in the record | Potency, µM (titrated, usually from 92.2 µM), without a hit: at the highest dose activity change, negative = less growth | hit rate 0.21% among 360,000 | AID 651644; active = well fitted falling curve with a large enough effect; inconclusive = small, poorly fitted or top-dose-only effect; inactive = no such curve, though single readings can be large or run the other way;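 further: on the % scale 0 is the no-effect control and ±100 the full control effect; nearly all actives have a fitted effect of over 50% in size; the assay follows cell death caused by Vpr and the record does not say whether a fall means rescue or toxicity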
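Fission yeast strain RE007, carrying one chromosomally integrated HIV-1 vpr copy, was seeded at OD 0.01 in PMG+AL medium with 23 nL pinned compound. After 24 h at 30 °C and 99% humidity, viability was read by BacTiter-Glo luminescence.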
StopGo reporter: lowers the luciferase signal of an FMDV 2A StopGo reporter. Potency, µM (top dose mostly 57.9 µM), without a hit: at the top dose signal change, negative = less light. hit rate 1.2% among 410,000. human cells with a luciferase reporter of 2A StopGo recoding; control for the full effect not named in the record. AID 1159524; active = well fitted falling curve with a large enough effect; inconclusive = small, poorly fitted or top-dose-only effect; inactive = no such curve, though single readings can be large or run the other way; tested in HEK293T cells; further: on the % scale 0 is the no-effect control and ±100 the full control effect; nearly all actives have a fitted effect of over 45% in size; luciferase light after 4 h
SARS PLpro yeast: SARS-CoV PLP inhibition in yeast; AID 485353; hit rate 0.19% among 330,000; Potency, µM (doses to about 32.9 µM), without a hit: at the highest dose activity, positive = growth rescue; S. cerevisiae expressing SARS-CoV PLpro, growth rescue; control for the full effect not named in the record; active means well fitted rising curve with a large enough effect; inconclusive means small, poorly fitted or top-dose-only effect; inactive means no such curve, though single readings can be large or run the other way; further: 0% is about no effect; nearly all actives have a fitted effect of over 55% in size; growth read by luminescence after 48 h
LASV entry inh: inhibitors of Lassa virus binding or cell entry; Potency, µM (top dose mostly 37.9 µM), for inactives: top-dose activity change, negative = inhibition, actives largely listed as inhibitors; AID 540256; hit rate 1.2% among 300,000; Lassa virus pseudotype entry inhibition, cell reporter; control for the full effect not named in the record; active means well fitted inhibition curve with a large enough effect; inconclusive means small, poorly fitted or top-dose-only effect, or effect the other way; inactive means flat fitted curve, though single readings scatter; tested in HEK293 cells; further: on the % scale 0 is the no-effect control and ±100 the full control effect; nearly all actives have a fitted effect of over 50% in size; luciferase read-out
Cruzain inh Det: inhibitors of Trypanosoma cruzi cruzain with detergent. AID 1478. hit rate 0.43% among 200,000. Potency, µM, for inactives: max response, negative = inhibition, usual class: inhibitors. purified cruzain, Z-FR-AMC fluorescence, 0.01% Triton. P25779;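 further: plate controls were neutral wells for no effect and buffer without enzyme for full effect; nearly all actives have a fitted effect of over 40% in size; top concentration of the series not given in the record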
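Detergent-containing run (0.01% Triton X-100) in acetate buffer pH 5.5 with 5 mM DTT: enzyme at 1.5 nM final, 15 min compound preincubation at room temperature, then 2 uM Z-FR-AMC substrate. Activity taken as 60 s fluorescence increase at 360/450 nm.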
Active calls of the source: *; ? = inconclusive; · = not tested or not shown; & = joins results of further samples; [ ] = another dose, or the depositor's remark. Unless noted, the call rests on the fitted dose curve; in most records, active means well fitted curve in the direction sought with a large enough effect; inconclusive means small, poorly fitted or top-dose-only effect, or another doubt; inactive means no such curve, though single readings can be large; an effect the other way counts as inactive or inconclusive. Potency means the concentration at half of the fitted maximal effect.

molecule,RE007 growth inh,Cruzain noTriton,MARV entry inh,StopGo reporter,Cruzain inh Det,LASV entry inh,NS1 function inh,SARS PLpro yeast
Cc1cc(C(=O)N/N=C2\CCCc3ccccc32)c(C)o1,-13%,-1%,8%,-26%,-2.3%,-20%,7%,27%
COCc1cc(C)nc(SCc2ccc([N+](=O)[O-])cc2)c1C#N,7%,·,-7%[46.1 µM],-22%,·,-13%[46.1 µM],18%,6%
Cc1nn(-c2ccc(F)cc2)c(-n2cccc2)c1C(=O)N1CCN(C(=O)c2ccco2)CC1,16%,·,-2%[46.1 µM],9%,·,?,-17%,-1%
N#CC(C#N)=Cc1ccc(OC(=O)c2ccccn2)cc1,4%,-9%,?,6%,-12%,26%,-20%,-21%
Cc1ccc(C(=O)COC(=O)c2ccc(-c3cnc4ccccc4n3)cc2)cc1C,-1%,-27%,28%,-17%,-5.0%,4%,17%,-26%
N#C/C(=C\c1ccccn1)c1nc2ccccc2s1,?,·,?,28%,·,-13%,5%,-1%
CCc1nc2nc(C)c(NS(=O)(=O)c3ccc(F)c(C)c3)c(=O)n2[nH]1,·,-6%,-7%[46.1 µM],2%,0.7%,4%[46.1 µM],·,·
Cc1ccc(CNCc2ccc3c(c2)OCO3)cc1,-11%,·,?,2%,·,?,6%,-1%
COc1ccc(CN2CCN(C(=O)Cn3nc(C(=O)O)c4ccccc4c3=O)CC2)cc1F,-8%,·,15%[46.1 µM],0%,·,26%[46.1 µM],-3%,-2%
COc1ccc(CN2CCNC(=O)C2CC(=O)NC2CCCCC2)c(OC)c1 (stereo not drawn),4%,·,8%,7%,·,2%,-9%,28%
CC1CCCN(C(=O)c2cn(-c3ccccc3)nc2-c2cccnc2)C1 (stereo not drawn),45%,·,20%,-17%,·,-24%,·,0%
CCN1CCN(C(c2cccc(Cl)c2)c2c(O)cc(C)n(CCOC)c2=O)CC1 (stereo not drawn),·,?,·,-20%,1.0%,-10%[46.1 µM],·,·
N#C/C(=C\c1ccc(-c2ccc(C(=O)O)cc2)o1)C(=O)Nc1ccc(F)cc1,6%,·,·,18%,·,·,2%,1%
N#Cc1cccc(-c2nnc(SCc3ccccc3C#N)o2)c1,-7%,3%,29%,39%[activator],-2.4%,10%,-8%,-10%
Cc1cc(C)n2nc(CC(=O)NNC(=O)COc3ccccc3)nc2n1,2%,·,19%[46.1 µM],0%,·,1%[46.1 µM],3%,-2%
CCc1c(C(=O)NC2CCCC2)csc1C,-8%,0%,3%,11%,1.5%,2%,3%,7%
Cc1cc(NC(=O)c2cc([N+](=O)[O-])ccc2Cl)no1,10%,·,?,?,·,-25%,-5%,1%
COc1ccc2sc(N3C(=O)C4CC=C(C)CC4C3=O)nc2c1 (stereo not drawn),-10%,-7%,3%,43%[activator],0.1%,-4%,-38%,0%
CCc1nc(CN(C)C(=O)C2CCC(=O)N(CCc3cccc(F)c3)C2)no1 (stereo not drawn),2%,·,?,39%[activator],·,0%,10%,1%
CC(OC(=O)c1cccs1)C(=O)NCc1ccco1 (stereo not drawn),25%,7%,-1%,-9%,1.6%,4%,-18%,4%
CCc1ccc2oc(C(=O)Nc3nc(-c4ccc(F)cc4)ns3)c(C)c2c1,·,-8%,-1%[46.1 µM],0%,1.7%,?,·,·
Nc1ccc(C(=O)C(=O)c2ccccc2)cc1,8%,·,?,12%,·,6%[46.1 µM],·,·
O=[N+]([O-])c1ccccc1COc1ccc(Cl)c2cccnc12,-3%,·,·,-27%,·,·,-1%,0%
Cc1ccc(S(=O)(=O)NCCc2nnc3ccc(SCc4ccccc4F)nn23)cc1,·,?,·,9%,-4.9%,?,·,·
O=C(NC(=S)NNS(=O)(=O)c1ccccc1)c1ccccc1[N+](=O)[O-],-7%,-15%,?,-23%,-17%,4%,-5%,5%
O=C1CCC(=O)N1c1nc2nc(-c3ccccc3)cc(=O)n2[nH]1,0%,6%,-1%,5%,3.2%,-13%,2%,2%
Cc1cc(NC(=O)CSc2ccc(-c3ccc(F)cc3)nn2)no1,-17%,·,?,-18%,·,-11%[46.1 µM],·,-3%
Cc1cccc(C)c1OCC(O)CNS(=O)(=O)c1ccccc1C(=O)N1CCOCC1 (stereo not drawn),-1%,27%,12%&12%[46.1 µM],?,1.3%,-3%,-9%,-7%
Cc1ccc(-c2c(C(=O)N/N=C/c3c[nH]c4ccccc34)nnn2-c2nonc2N)cc1,-6%,·,·,-16%,·,·,5%,-7%
CCN(CC)C(=O)CSC(Nc1ccc(F)cc1)=C(C#N)C#N,-7%,·,?,?,·,-12%[46.1 µM],6%,1%
Cc1ccc(N2CCN(c3ccc(C)cc3)C2c2ccccn2)cc1,0%,-20%,2%,·,-3.0%,2%,-2%,-3%
CCN(Cc1ccc2c(c1)OCO2)C(=O)CSc1nc(C)nc2sc(C)c(C)c12,32%,·,?,?,·,-6%,·,-19%
O=C(O)C1CCC(C(=O)O)O1 (stereo not drawn),3%,·,4%[46.1 µM],-8%,·,-5%[46.1 µM],·,·
CC1=NN(c2ccccc2)C(=O)/C1=C\c1cc(C)n(C)c1C,0%,·,1%,27%,·,10%,-4%,4%
O=C(Nc1nc(COc2ccccc2)cs1)C1CCC1,?,-21%,-29%,-24%,-2.4%,?,-12%,-9%
COC(=O)CN1C2(C#N)CCCCC2CC2CCCCC21C#N (stereo not drawn),-8%,7%,15%,-8%,0.6%,-9%,4%,-6%
CCCCN(CC)C(=O)C1CCCN(c2ncnc3onc(C)c23)C1 (stereo not drawn),·,2%,·,?,-1.9%,?,·,·
COc1ccccc1CCN=C(N)NS(=O)(=O)c1ccc(C)c(C)c1,7%,·,-39%[46.1 µM],6%,·,?,-3%,-4%
COc1ccc([N+](=O)[O-])c(OC)c1C(=O)NC(=O)Nc1c(F)cc(F)cc1F,-10%,·,-1%[46.1 µM],-6%,·,-10%,8%,1%
CC1=CC(C)(C)N(S(=O)(=O)c2ccc(C)cc2)c2ccccc21,-13%&2%,-8%,?,·,-2.7%,?,-5%,-25%
COc1ccc(C(CC(=O)O)NC(C)=O)cc1OC (stereo not drawn),-6%,4%,25%,-11%,3.6%,1%,?,-4%
c1cc(C2OCCN2CC2COC3(CCCC3)O2)ccn1 (stereo not drawn),-11%,-2%,?,7%,-0.4%,6%,0%,-7%
O=C(COC(=O)c1cc(=O)[nH]c2ccccc12)c1ccccc1,2%,·,-14%[46.1 µM],57%[activator],·,2%,·,1%
O=C(COc1ncnc2ccccc12)Nc1cc(S(=O)(=O)N2CCOCC2)ccc1Cl,0%,·,13%[46.1 µM],10%,·,11%,3%,-1%
COC(=O)CC1=C(C(=O)OC)C(c2ccncc2)C(C#N)=C(N)O1 (stereo not drawn),-6%,8%,-23%,-12%,2.0%,-5%,26%,3%
Cc1nnc(NC(=O)CSc2cn(Cc3ccccc3)c3ccccc23)s1,8%,?,·,-25%,-2.0%,·,3%,-6%
CCC(C)(C)NC(=O)C(c1ccc(OC)cc1)N(C(=O)CCC(=O)Nc1cc(C)on1)c1ccccc1F (stereo not drawn),3%,·,?,13%,·,6%,23%,3%
CCOC(=O)c1c(/N=C/N(C)C)sc(C)c1C,-4%,·,?,-14%,·,-16%[46.1 µM],·,-2%
COc1cc2c(C(=O)Nc3cc(OC)c(OC)c(OC)c3)cn(C)c(=O)c2cc1OC,·,-6%,8%[46.1 µM],19%,-1.2%,15%[46.1 µM],·,·
COc1ccc(Br)cc1CNC(=O)c1cc2n(n1)CCCN(Cc1ccc(C)cc1)C2=O,·,5%,·,-12%,-2.8%,-12%[46.1 µM],·,·
Cc1cc(O)c(C(c2ccccc2)N2CCC(C)CC2)c(=O)n1Cc1ccco1 (stereo not drawn),·,?,·,-14%,-2.8%,30%[46.1 µM],·,·
COc1cccc(C(=O)NCCSc2c(C)[nH]c3ccccc23)c1OC,6%,·,·,?,·,·,-4%,-2%
CCOc1cc(C2Nc3ccccc3NC3=C2C(=O)CC(C)(C)C3)ccc1OC(C)=O (stereo not drawn),2%,·,·,6%,·,·,0%,1%
Cn1c(=O)c(C(=O)CSc2nnc(Nc3ccccc3)s2)c(N)n(Cc2ccccc2)c1=O,-2%,?,25%,-36%,2.6%,-16%,6%,3%
Cc1cc(C)n(-c2nnc(N3CCN(c4ccc(F)cc4)CC3)nn2)n1,1%,·,14%[46.1 µM],-21%,·,9%[46.1 µM],·,-1%
COCC(C)NC(=O)C1CC(c2cccc(Br)c2)=NO1 (stereo not drawn),14%,5%,2%,14%,-0.6%,2%,-7%,-1%
O=C(c1cccc(Cl)c1)N1CCN(CCc2ccncc2)CC1,·,3%,-1%[46.1 µM],-14%,-1.2%,15%[46.1 µM],·,·
CCOC(=O)N1CCN(C(=O)CSc2ccc(-c3ccccc3)nn2)CC1,-5%,·,?,-13%,·,-1%,·,0%
N#Cc1cn(Cc2ccccc2)c(=O)[nH]c1=O,-2%,·,-21%[46.1 µM],-7%,·,-13%[46.1 µM],0%,1%
C=CCOc1ccc(Br)cc1/C=N/O,-15%,-8%,-18%,-28%,-2.9%,13%,-78%,-17%

Other entries.
molecule,RE007 growth inh,Cruzain noTriton,MARV entry inh,StopGo reporter,Cruzain inh Det,LASV entry inh,NS1 function inh,SARS PLpro yeast
Cc1ccc(S(=O)(=O)N2CCOCC2)cc1NC(=O)COC(=O)CCn1c(C)csc1=O,6%,·,11%,-17%,·,?,-3%,9%
O=C(c1ccc(F)cc1)c1cn[nH]c1-c1ccccc1O,-4%,-5%,12%,13%,2.3%,-3%,-20%,3%
COc1ccccc1-c1c(C)nn2c(N3CCC(C(N)=O)CC3)cc(C)nc12,-8%,5%,·,-14%,-3.3%,·,0%,-3%
CCOC(=O)c1ccc2ncc(C(=O)OCC)c(NCCc3ccc(OC)c(OC)c3)c2c1,·,4%,-9%[46.1 µM],-3%,-4.1%,?,·,·
